Bioassay records as filed in PubChem BioAssay.
MT1-MMP act inh – blockers of MT1-MMP proenzyme processing, primary screen, HT1080 RFP-PRO-GFP cells, GFP/RFP fluorescence; hit rate 0.061% among 360,000; Matrix metalloproteinase-14 (Homo sapiens), P50281; GFP/RFP ratio change, % at 20 µM; GFP/RFP ratio fluorescence, overnight; percent of plate control window, DMSO zero;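 active = GFP/RFP ratio change of at least 30% with cell ATP level not reduced by more than half and red fluorescence within 50% of control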; note: strong numbers were not always called active
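Material: RFP-PRO-GFP reporter HT1080 cells. Dosing: single-point 20 µM compound, 1% DMSO. Controls: DMSO and RFP-L50D-GFP cell wells. Timing: cells overnight before dosing, compound overnight, 37 °C, 5% CO2. Measure: GFP/RFP fluorescence ratio.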
CSC inhib – cancer stem cell viability inhibitors, primary screen, luminescence; inhibition, % at 7.5 µM; cancer stem cell-like cells viability; AID 2717, 2010; hit rate 1.1% among 300,000;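 active = mean at 75% or more and at least half the replicates too; inconclusive = mean and replicates disagree; tested in HMLE shEcad cells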;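 note: 0% = median of negative and 100% = median of positive control wells; the first replicate is given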
Env fusion inh – inhibitors of HIV-1 Env-driven cell-cell fusion, primary screen, HeLa-JRFL effector, CEM21 target cells, luciferase | inhibition, % at 12.3 µM | hit rate 1.1% among 360,000;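 active = mean replicate inhibition score of at least 50 and every replicate individually at or above 50; inconclusive = only one of the two criteria met; inactive = mean below 50 and not all replicates reaching 50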;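 note: 0% = plate neutral controls and 100% = maraviroc near 300 nM; one replicate is shown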
Yeast UUG start – modulators of yeast start codon fidelity, primary screen, whole organism, S. cerevisiae, single point, plate reader. S. cerevisiae UUG-firefly luciferase reporter, luminescence/redox ratio. activity score, % at 18.7 µM. hit rate 0.13% among 350,000;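 active = replicate mean at a twofold rise or more, about +100% in these data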;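 note: firefly luciferase made from a UUG start codon reports start codon fidelity; reporter light over untreated wells divided by growth signal over untreated wells; some hits fall short of that in this replicate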
eIF4H inh – human eIF4H binding inhibitors, primary screen, translation initiation inhibitor project, biochemical, uHTS, fluorescence polarization; hit rate 0.94% among 290,000; Eukaryotic translation initiation factor 4H (Homo sapiens), Q15056; inhibition, % at 35 µM; eIF4H fluorescence polarization binding assay;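 active = 50% or more with normal probe brightness, or confirmed in later tests; inconclusive = above 50% with abnormal brightness, or retests that disagree; inactive = below 50% or failed in later tests; about a fifth of its hits are not listed in these tables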;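 note: calls also rest on retests at 20 µM and on dose response follow-up; 0% = protein and probe with vehicle and 100% = probe without protein; strong numbers were not always called active; many hits fall short of the cut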
PABP FP inh – PABP poly(A) RNA binding inhibitors, primary screen, biochemical, fluorescence polarization, uHTS; hit rate 1% among 290,000; Polyadenylate-binding protein 1 (Homo sapiens), P11940; inhibition, % at 35 µM;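 active = 50% or more with normal probe brightness, or confirmed in later tests; inconclusive = above 50% with abnormal brightness, or retests that disagree; inactive = below 50% or failed in later tests; about a fifth of its hits are not listed in these tables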;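 note: calls also rest on retests at 20 µM and on dose response follow-up; controls were probe without protein and protein plus probe with vehicle; some compounds called inactive have numbers as strong as hits; many hits fall short of the cut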
Rce1 inh – yeast Rce1p protease inhibitors, primary screen, biochemical, fluorescence, cell-free homogeneous; hit rate 0.27% among 290,000; CAAX prenyl protease 2 (Saccharomyces cerevisiae (strain ATCC 204508 / S288c)), Q03530; yeast membranes, quenched prenylated peptide cleavage fluorescence; calls only;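 active = fall in fluorescence gain of 50% or more versus controls, with final raw signal at or below 3038400; inconclusive = same 50% fall but final raw signal above 3038400; inactive = fall in fluorescence gain under 50%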;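 note: plate controls were neutral control wells for no effect and wells lacking membranes for full effect; tested at 10 µM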
Target sequence (Q03530 whole entry, looked up): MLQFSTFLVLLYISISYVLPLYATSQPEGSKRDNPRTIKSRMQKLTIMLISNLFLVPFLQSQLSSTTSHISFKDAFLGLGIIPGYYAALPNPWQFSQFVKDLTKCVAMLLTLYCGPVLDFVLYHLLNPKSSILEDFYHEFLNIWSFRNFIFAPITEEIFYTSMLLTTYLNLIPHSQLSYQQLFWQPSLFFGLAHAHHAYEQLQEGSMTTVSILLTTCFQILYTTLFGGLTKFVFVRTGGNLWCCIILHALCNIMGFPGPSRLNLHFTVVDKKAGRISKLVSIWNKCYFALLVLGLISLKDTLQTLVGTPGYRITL
MT1-MMP act inh RFP – also measured in MT1-MMP act inh; calls as there; RFP signal change, %; measured here: RFP expression control read;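 0 = vehicle wells; hits needed this value within 50% of zero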
An asterisk follows results filed as active; i = inactive; ? = inconclusive; . = not tested or not shown; + = active, no number.

SMILES	MT1-MMP act inh	MT1-MMP act inh RFP	CSC inhib	Env fusion inh	Yeast UUG start	eIF4H inh	PABP FP inh	Rce1 inh
COc1ccc(-c2c(S(=O)(=O)c3ccccc3)cnn2-c2ccccc2)cc1	3.2	-1.2	.	62.9*	-13.4	-4.9	-3.9	i
CCN(CCn1cccn1)C(=O)c1cc(COc2ccc(F)c(F)c2)on1	1.7	4.3	6.5	-13.5	-2.9	-17.4	1.9	i
Cc1ccc(SCC2CNc3nc4ccccc4c(=O)n32)c(C)c1 (stereo not given)	4.7	2.6	-4.3	.	-1.2	0.1	-2.0	i
CCN(CC(=O)NCc1cccs1)S(=O)(=O)c1cccc(C(C)=O)c1	0.3	0.7	-14.4	-161.8	-11.8	-7.2	5.1	.
Cc1ccccc1C(=O)Nc1ccnn1C1CCN(C(=O)C2CCOC2)CC1 (stereo not given)	-0.3	1.6	-13.7	-10.6	-2.0	-0.9	10.3	i
COc1cc(C2C(C(C)=O)=C(O)C(=O)N2CCN(C)C)ccc1O (stereo not given)	1.9	4.3	-12.7	.	8.5	-3.0	4.4	i
O=C(NNC(=O)c1ccc([N+](=O)[O-])cc1)c1ccc(NS(=O)(=O)c2cccs2)cc1	2.3	1.3	-24.5	-13.3	-8.3	.	.	.
O=C1C2(c3ccccc3)CN(CCCO)CC1(c1ccccc1)CN(CCCO)C2	1.6	3.1	-4.1	.	-12.7	-14.1	-1.2	i
CCN(CC)C(=O)CSc1nc2cc(OC)c(OC)cc2c(=O)n1Cc1ccc(Cl)cc1	-1.7	-14.0	16.8	-28.0	2.6	-4.9	-9.6	i
CCOc1ccccc1NC(=O)c1ccc(S(=O)(=O)N(C)c2ccccc2)cc1	-3.9	-4.7	15.2	11.5	-8.4	.	.	.
CCCCN1C(=O)/C(=c2\sc3nc(=O)c(-c4ccccc4)nn3c2=O)c2ccccc21	3.7	5.4	-1.7	.	-6.7	-5.1	-1.5	i
CCn1cc(/C=C(\NC(=O)c2ccccc2F)C(=O)N2CCCC2)c2ccccc21	0.5	0.8	0.8	.	-9.8	-15.5	-2.6	+
CC(C)(C)c1cc(C(=O)N/N=C/c2ccc(-c3ccccc3[N+](=O)[O-])o2)n[nH]1	-12.0	14.7	-11.9	-4.9	-6.3	32.5	26.7	i
COc1ccc(-c2nc(-c3cccc(C)c3)[nH]c(=O)c2C#N)cc1	9.9	2.5	23.6	-55.6	-17.1	4.3	-1.9	i
Cn1c(Cc2ccccc2)nnc1SCC(=O)N1CCOCC1	-3.6	3.7	-6.0	-78.5	-17.0	5.7	7.3	i
O=[N+]([O-])c1cccc(Cl)c1NCCNS(=O)(=O)c1ccc(Cl)cc1	9.1	-2.3	3.7	.	-18.8	-5.4	-1.3	i
O=C(O)Cc1sc(Nc2ccc(F)cc2)nc1-c1cccs1	-19.3	22.7	7.6	-14.3	.	?	-7.7	i
COc1ccc(N2CCN(C(=O)c3sc4ncn(CC(=O)N5CCCCC5)c(=O)c4c3C)CC2)cc1	2.7	-9.5	-10.9	-1.9	20.6	-21.4	-1.7	i
COc1cccc(N2CCN(C(=O)CC(C)(C)CC3=NS(=O)(=O)c4ccccc4N3)CC2)c1	-3.0	-9.8	4.7	0.3	21.6	.	.	i
CC(=O)N(C(C)=O)c1ncnc2c1c(-c1ccc(Cl)cc1)nn2C(C)(C)C	-1.3	1.3	28.9	18.6	.	-2.3	-4.7	i
CCCCNC(=O)C1(C)CCN1C(=O)Cc1ccc(OC)cc1 (stereo not given)	-2.1	2.1	.	-152.5	-3.0	.	.	.
Cn1c(=O)[nH]c(=O)c2c1nc(CN1CCN(c3cccc(Cl)c3)CC1)n2CCCc1ccccc1	-1.8	-6.7	4.4	1.8	-24.9	-8.9	-2.4	i
CC(OC(=O)Cn1[nH]c(=O)c2ccccc2c1=O)C(=O)Nc1cccc(Cl)c1 (stereo not given)	2.2	5.3	0.0	.	.	.	.	i
CCOC(=O)c1c(/N=C/C2C(=O)CCCC2=O)sc2c1CCCC2	-0.5	0.6	5.9	12.9	.	8.5	6.3	i
Cc1ccc(C)n1-c1ccc(NC(=O)c2ccccc2)cc1	-5.0	1.3	13.3	-20.6	.	-3.1	-4.2	i
CCCn1c(N)c(C(=O)CSc2nnc(-c3ccco3)n2Cc2ccccc2)c(=O)[nH]c1=O	-2.2	-0.5	.	-54.9	-21.3	.	.	i
Cc1nc2sc(C(c3ccco3)N3CCN(C(c4ccccc4)c4ccccc4)CC3)c(O)n2n1 (stereo not given)	-7.4	-6.3	-1.1	-110.5	21.7	4.9	-5.8	i
Cc1nn(C)c(C)c1NC(=O)CSc1nc(C2CC2)nc2c1cnn2-c1ccccc1	-3.6	-17.6	-7.6	56.6*	-11.5	1.5	3.4	i
O=C(Nc1ccc2c(c1)OCCO2)c1ccc2nccnc2c1	-1.0	-0.8	9.1	.	-46.5	-7.6	3.7	i
COC(=O)C1=C(C)Nc2ccc(C)cc2S1	-1.8	0.0	0.1	-7.8	-11.2	4.0	0.2	i
Nn1cc(-c2ccccc2)nc1SCC(=O)N1CCN(S(=O)(=O)c2ccccc2)CC1	2.9	-3.7	-2.0	-85.8	-2.7	2.3	32.1	i
CCOC(=O)[C@H]1[C@H]2COc3ccc(Br)cc3[C@@H]2N2C(=O)c3c(C)cc(C)cc3NC(=O)[C@@]12C	-11.3	-11.3	-0.4	67.0*	5.6	.	.	.
Cc1c(NC(=O)c2cccc(-c3cc4ccccc4oc3=O)c2)cccc1-c1nc2ncccc2o1	1.1	-6.6	10.7	7.6	4.4	24.2	2.5	i
Cc1ccc2nc(CSc3nnc(Nc4ccccc4C)s3)cc(=O)n2c1	-0.8	2.8	2.5	-21.1	-12.0	37.1	-1.5	i
Cc1ccc(S(=O)(=O)N(C)c2ccc(C(=O)N(CC(C)C)C3CCS(=O)(=O)C3)cc2)cc1 (stereo not given)	2.8	-4.3	-3.5	.	.	.	.	i
COc1ccc(N2CCn3c2nc2c3c(=O)n(CCc3ccccc3)c(=O)n2C)c(OC)c1	.	.	.	.	.	-14.5	-10.3	i
Cc1nnc(NC(=O)CSc2ccc(-c3ccc(Cl)cc3)nn2)s1	7.7	-0.3	-4.5	-18.7	.	3.3	-12.1	i
CCN(C(=O)Cc1c(C(=O)O)n(C)c2ccccc12)c1ccc(F)cc1	3.0	5.1	-6.3	-9.7	.	6.1	1.4	i
O=C(Cn1ncc2c3ccccc3n(Cc3ccccc3F)c2c1=O)NC1CC1	0.4	-1.9	-3.2	5.9	-10.9	6.8	3.0	i
C=CCSc1nnc(NC(=O)CSc2nc3ccccc3o2)s1	1.5	-0.6	9.7	.	-17.2	-8.4	-1.5	i

As entered above:
In Env fusion inh, `O=C(NNC(=O)c1ccc([N+](=O)[O-])cc1)c1ccc(NS(=O)(=O)c2cccs2)cc1` is listed with -13.3
In eIF4H inh, `Cc1ccc(SCC2CNc3nc4ccccc4c(=O)n32)c(C)c1` (stereo not given) is listed with 0.1

Going on with the list.
SMILES	MT1-MMP act inh	MT1-MMP act inh RFP	CSC inhib	Env fusion inh	Yeast UUG start	eIF4H inh	PABP FP inh	Rce1 inh
Cn1c(SCc2cc(=O)[nH]c(C(C)(C)C)n2)nnc1C(F)(F)F	-1.1	1.2	12.1	3.2	-12.8	-8.2	4.3	i
COc1ccc(/C=C2/SC(=O)N(CCNC(=O)C3CCCN3C(=O)c3cccs3)C2=O)cc1 (stereo not given)	0.4	1.1	.	-5.2	.	-1.2	-1.0	i
COc1ccc(CC(=O)Nc2nccs2)cc1OC	6.3	-1.0	-8.0	-1.8	.	4.3	4.9	i
CCOc1ccc(CCNC(=O)C2CCN(c3ccc(N4CCOCC4)nn3)CC2)cc1OCC	1.0	0.4	2.4	-22.8	-1.0	-16.2	-8.8	i
Cc1cc(NC(=O)CSc2nc3ccccc3c(=O)n2C(C)c2ccccc2)no1 (stereo not given)	-19.9	-23.6	1.5	.	-1.5	9.2	-4.3	i
FC(F)Sc1nnc(-c2cccs2)n1-c1ccccc1	-6.3	-3.9	-1.7	2.8	-0.1	-3.8	8.7	i
COc1ccc(CN2C(=O)C(O)(CC(=O)c3ccc4c(c3)OCO4)c3ccccc32)cc1OC (stereo not given)	-1.3	2.9	-7.2	-15.8	-9.4	-4.8	-5.9	i
O=C(Nc1cccnc1)c1cc(S(=O)(=O)N2CCCCC2)c(Cl)cc1Cl	1.0	-0.4	1.7	-5.6	-6.4	-2.8	7.2	i
Cc1ccc(C)c(-n2c(SCC(=O)NCC3CCCO3)nnc2-c2ccoc2C)c1 (stereo not given)	-0.6	3.5	10.9	.	-11.2	-3.1	7.0	i
CC(C)(C)c1ccc2c(c1)C(c1ccc3c(c1)OCO3)CC(=O)O2 (stereo not given)	6.7	9.2	.	23.0	-12.2	.	.	.
CC1(C)Oc2ccc3ccc(=O)oc3c2[C@H](O)[C@H]1O	-5.7	1.0	-3.5	-20.7	-19.7	.	.	.
CCOc1ccccc1N1CC(C(=O)Nc2nccs2)CC1=O (stereo not given)	1.3	5.5	.	.	-8.6	-3.4	-3.4	i
CCOc1cc(C)c(Cl)cc1S(=O)(=O)NCC1CCCO1 (stereo not given)	5.5	0.5	.	.	-1.5	-13.4	-1.5	i
COc1cc(NC(=O)CCC2CCCC2)cc(-n2cnnn2)c1	-0.6	-1.4	1.9	-5.5	.	-2.8	-5.1	i
Cc1ccc(-n2nnc3c(=O)n(CC(=O)OCc4ccccc4)cnc32)cc1	6.5	8.3	-3.3	5.9	-6.1	-10.0	-3.4	i
CC(C)(C)C(=O)Nc1cc(NC(=O)C(C)(C)C)cc(C(=O)NNC(=O)c2ccncc2)c1	0.4	2.2	-24.3	-36.3	-25.3	-6.5	-2.2	i
Cc1noc(C)c1C(=O)N1CCC1(C)C(=O)NS(=O)(=O)c1cccc(OC(F)F)c1 (stereo not given)	0.9	4.8	.	15.2	-7.1	.	.	.
Cc1ccc(SCc2cn3c(C)cc(C)nc3n2)cc1	1.7	0.5	-11.3	-10.1	.	-6.2	-0.4	i
CCSc1ccc(C(=O)Nc2ccc(Br)cn2)cc1[N+](=O)[O-]	0.9	-2.8	0.6	-13.9	.	0.2	-7.1	i
O=C1c2ccccc2C(=O)N1OCc1ccc(Cl)cc1	-1.0	1.6	-4.8	.	-14.1	-4.9	-4.7	i

Ordered by count of non-hydrogen atoms (ascending): some entries from above
SMILES	MT1-MMP act inh	MT1-MMP act inh RFP	CSC inhib	Env fusion inh	Yeast UUG start	eIF4H inh	PABP FP inh	Rce1 inh
Cc1ccc(SCc2cn3c(C)cc(C)nc3n2)cc1	1.7	0.5	-11.3	-10.1	.	-6.2	-0.4	i
CCSc1ccc(C(=O)Nc2ccc(Br)cn2)cc1[N+](=O)[O-]	0.9	-2.8	0.6	-13.9	.	0.2	-7.1	i
COc1cc(NC(=O)CCC2CCCC2)cc(-n2cnnn2)c1	-0.6	-1.4	1.9	-5.5	.	-2.8	-5.1	i
CC(C)(C)C(=O)Nc1cc(NC(=O)C(C)(C)C)cc(C(=O)NNC(=O)c2ccncc2)c1	0.4	2.2	-24.3	-36.3	-25.3	-6.5	-2.2	i

Only part of the results is shown. The share of hits here may be higher or lower than overall.
